Screening data: PubChem BioAssay, National Center for Advancing Translational Sciences (NCATS)
2A StopGo = lowers the luciferase signal of an FMDV 2A StopGo reporter. human cells with a luciferase reporter of 2A StopGo recoding; control for the full effect not named in the record. Potency, µM (top dose mostly 57.9 µM), without a hit: top-dose signal change, negative = less light. 1.2% of 410,000 active; active = well fitted falling curve with a large enough effect; inconclusive = small, poorly fitted or top-dose-only effect; inactive = no such curve, though single readings can be large or run the other way; tested in HEK293T cells; further: on the % scale 0 is the no-effect control and ±100 the full control effect; nearly all actives have a fitted effect of over 45% in size; luciferase light after 4 h
MARV entry inh = inhibitors of Marburg virus binding or cell entry; 1.8% of 300,000 active; Potency, µM (series often up to 37.8 µM), inactives show at the top dose activity change, negative = inhibition, usual class: inhibitors; Marburg virus pseudotyped entry inhibition, cell reporter; control for the full effect not named in the record; about a third of the inactives were read at about 46 µM; active = well fitted inhibition curve with a large enough effect; inconclusive = small, poorly fitted or top-dose-only effect, or effect the other way; inactive = flat fitted curve, though single readings scatter; tested in HEK293 cells; about a fifth of its hits are not listed in these tables; further: on the % scale 0 is the no-effect control and ±100 the full control effect; luciferase read-out
RE007 growth inh = less growth of the S. pombe RE007 Vpr strain; S. pombe RE007 Vpr strain, BacTiter-Glo ATP luminescence, 24 h; control for the full effect not named in the record; Potency, µM (top dose mostly 92.2 µM), without a hit: at the highest dose activity change, negative = less growth; 0.21% of 360,000 active; AID 651644; active = well fitted falling curve with a large enough effect; inconclusive = small, poorly fitted or top-dose-only effect; inactive = no such curve, though single readings can be large or run the other way;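 further: on the % scale 0 is the no-effect control and ±100 the full control effect; nearly all actives have a fitted effect of over 50% in size; the assay follows cell death caused by Vpr and the record does not say whether a fall means rescue or toxicity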
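Fission yeast RE007 carrying one integrated HIV-1 vpr copy, seeded at OD 0.01 in PMG+AL medium with 23 nL pinned compound. Grown 24 h at 30 degrees; viability read by BacTiter-Glo luminescence after 5 min.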
Cruzain inh Det = cruzain (T. cruzi) inhibition with detergent | 0.43% of 200,000 active | Potency, µM, for inactives: max response, negative = inhibition, usual class: inhibitors | P25779 | purified cruzain, Z-FR-AMC fluorescence, 0.01% Triton; active means well fitted curve in the direction sought with a large enough effect; inconclusive means small, poorly fitted or top-dose-only effect, or another doubt; inactive means no such curve, though single readings can be large; an effect the other way counts as inactive or inconclusive;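 further: plate controls were neutral wells for no effect and buffer without enzyme for full effect; nearly all actives have a fitted effect of over 40% in size; top concentration of the series not given in the record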
Target sequence (P25779 123-467 limits assumed): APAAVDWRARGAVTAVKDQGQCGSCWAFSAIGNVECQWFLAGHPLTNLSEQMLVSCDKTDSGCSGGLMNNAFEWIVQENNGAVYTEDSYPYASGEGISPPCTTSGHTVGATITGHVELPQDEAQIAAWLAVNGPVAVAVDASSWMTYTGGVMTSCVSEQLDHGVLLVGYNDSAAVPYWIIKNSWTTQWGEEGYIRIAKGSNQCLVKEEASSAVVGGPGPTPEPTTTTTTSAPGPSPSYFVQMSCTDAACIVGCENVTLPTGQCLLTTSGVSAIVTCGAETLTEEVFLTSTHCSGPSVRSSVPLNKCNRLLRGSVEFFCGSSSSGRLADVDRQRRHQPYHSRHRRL
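Compounds were screened in titration against cruzain (1.5 nM) with 0.01% Triton X-100 to counter colloidal aggregation. Activity was the AMC fluorescence increase over 60 s after adding 2 uM Z-FR-AMC at pH 5.5.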
SARS PLP yeast = blocks SARS-CoV papain-like protease in a yeast assay; S. cerevisiae expressing SARS-CoV PLpro, growth rescue; control for the full effect not named in the record; Potency, µM (titrated, usually from 32.9 µM), for inactives: at the top dose activity, positive = growth rescue; 0.19% of 330,000 active; further: 0% is about no effect; nearly all actives have a fitted effect of over 55% in size; growth read by luminescence after 48 h
NS1 inh = inhibitors of influenza NS1 protein function. S. cerevisiae slowed by influenza A NS1, growth recovery by OD600. Potency, µM (titrated, usually from 46.1 µM), inactives show at the highest dose activity, positive = more growth. 0.4% of 270,000 active. AID 2326; further: actives are rising curves; nearly all actives have a fitted effect of over 50% in size
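In this qHTS, NS1 from influenza A is expressed in budding yeast, where it slows growth. Cells are switched from glucose to 2% galactose medium (pH 6.0, -URA), treated with compound, and growth recovery is read at OD600.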
Cruzain inh noDet = inhibitors of Trypanosoma cruzi cruzain without detergent; 2.3% of 200,000 active; Potency, µM, without a hit: max response, negative = inhibition, hits mostly inhibitors; purified cruzain, Z-FR-AMC fluorescence, no detergent; active means well fitted curve in the direction sought with a large enough effect; inconclusive means small, poorly fitted or top-dose-only effect, or another doubt; inactive means no such curve, though single readings can be large; an effect the other way counts as inactive or inconclusive;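 further: plate controls were enzyme without inhibitor for no effect and buffer without enzyme for full effect; nearly all actives have a fitted effect of over 40% in size; top concentration of the series not given in the record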
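Purified cruzain at 1.5 nM, pre-incubated 15 min with compound at room temperature in 100 mM sodium acetate pH 5.5, 5 mM DTT, 0.00005% Triton X-100. Reaction started with 2 uM Z-FR-AMC; AMC fluorescence increase over 60 s gives rate.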
LASV entry inh = blocks Lassa virus binding to or entry into cells; Potency, µM (doses to about 37.9 µM), without a hit: top-dose activity change, negative = inhibition, hits mostly inhibitors; 1.2% of 300,000 active; Lassa virus pseudotype entry inhibition, cell reporter; control for the full effect not named in the record; active means well fitted inhibition curve with a large enough effect; inconclusive means small, poorly fitted or top-dose-only effect, or effect the other way; inactive means flat fitted curve, though single readings scatter; tested in HEK293 cells; further: on the % scale 0 is the no-effect control and ±100 the full control effect; nearly all actives have a fitted effect of over 50% in size; luciferase read-out
The depositor's hits bear a star; ? = inconclusive; nt = no result given; & = joins results of further samples; [ ] = dose if it differs, or a comment. Unless noted, the call rests on the fitted dose curve; in most records, active means well fitted rising curve with a large enough effect; inconclusive means small, poorly fitted or top-dose-only effect; inactive means no such curve, though single readings can be large or run the other way. Potency means the concentration at half of the fitted maximal effect.

canonical_smiles | Cruzain inh noDet | Cruzain inh Det | SARS PLP yeast | NS1 inh | 2A StopGo | MARV entry inh | RE007 growth inh | LASV entry inh
O=C(COC(=O)c1ccccc1Br)Nc1ccc(F)cc1 | nt | nt | -10% | -5% | 82%[activator] | nt | 22% | nt
CN(C)C(=O)c1nc2ccc(Cl)cn2c1CN1CCCC(OCc2cccnc2)C1 (centres undefined) | nt | nt | 1% | 4% | -5% | nt | -7% | nt
Cc1c(Br)c([N+](=O)[O-])nn1CC(=O)Nc1ccc(C(N)=O)cc1 | nt | nt | 0% | -1% | 35%[activator] | nt | -2% | nt
COc1ccc(NC(=O)C(=O)NCC(c2cccnc2)N2CCc3ccccc32)cc1OC (centres undefined) | 2% | 0.1% | nt | nt | -22% | nt | nt | 5%[46.1 µM]
N#C/C(=C\c1ccco1)C(=O)Nn1cnnc1 | nt | nt | -3% | 0% | -10% | 24%[46.1 µM] | -6% | nt
COCCNP(=O)(c1ccccc1)c1nc2ccccc2s1 (centres undefined) | 6% | -4.6% | 0% | 2% | nt | nt | nt | nt
O=C(CCCn1c(=O)c2cccn2c2cccnc21)NCCc1ccc(Cl)cc1 | 2% | -0.3% | 4% | 0% | -14%&-18% | nt | 9% | 1%[46.1 µM]
COc1ccc(-n2nnnc2SCC(=O)c2cccc(OC)c2)cc1 | -7% | -1.3% | 0% | 3% | nt | -21% | 6% | ?
CCOC(=O)c1ccccc1NC(=O)c1cnc(N2CCOCC2)c2ccccc12 | ? | -23% | nt | nt | 0% | nt | nt | ?
O=C(COc1cccc2ccccc12)NNC(=O)[C@@H]1CCCC[C@@H]1C(=O)O | 3% | -0.1% | 1% | 5% | 0% | 22% | 8% | 12%
N#CC(=C1N=c2ccccc2=N1)c1c(O)[nH]c2ccccc12 | -3% | 5.5% | -2% | 5% | nt | -1% | nt | nt
CN1CCN(/C=N/c2sc3c(c2C#N)CCCCC3)CC1 | -8% | -5.0% | ? | 1% | 61%[activator] | ? | -8% | ?

Continued:
canonical_smiles | Cruzain inh noDet | Cruzain inh Det | SARS PLP yeast | NS1 inh | 2A StopGo | MARV entry inh | RE007 growth inh | LASV entry inh
COCc1ccc(CN2CCc3c([nH]c4ccccc34)C2CC(C)C)o1 (centres undefined) | nt | nt | 0% | 28% | -15% | ? | -18% | ?
Cc1ccnc(NC(=O)CCC(=O)N(CC(=O)NCc2ccccc2)Cc2ccco2)c1 | nt | nt | 0% | 6% | 34%[activator] | 22%[46.1 µM] | 1% | 6%[46.1 µM]
COc1ccc(NC(=O)c2cc(S(=O)(=O)N3CCOCC3)cs2)cc1 | nt | nt | 1% | 0% | -16% | -13%[46.1 µM] | 98% | ?
CCOc1ccc(CN2CCC(n3nccc3NC(=O)C3CC3)CC2)cc1CO | nt | nt | -3% | 2% | 19% | 2%[46.1 µM] | 7% | ?
CCC(C)(C(=O)NC1CCCCC1)N(Cc1cccs1)C(=O)c1ccc(=O)[nH]c1 (centres undefined) | 0% | 0.5% | 1% | -2% | -11% | -20% | -15% | -2%
Cc1c(CCO)c(=O)[nH]n1C(=O)c1ccc(F)cc1 | 2% | 0.5% | -9% | -2% | 12% | 21% | 4% | 9%
CCOc1ccc(C(=O)c2nc3c(n2O)CCCC3)cc1 | -9% | -5.8% | -16% | -7% | 44%[activator] | 6% | -5% | 3%
OCCOCC#CCN1CCOCC1 | 5% | 6.4% | 1% | 10% | -6% | 27% | 5% | 0%
CCOc1ccc(CCNC(=O)C2CC(=O)N(C3CCCC3)C2)cc1OCC (centres undefined) | 11% | 7.3% | 3% | -8% | nt | -2% | -8% | 13%
N#Cc1c(NC(=O)c2ccco2)sc2c1CCC2 | nt | nt | 8% | -4% | 54%[activator] | nt | ? | nt
Cc1cc(C)c(S(=O)(=O)N2CCOC2CNC(=O)C(=O)NCc2ccccn2)c(C)c1 (centres undefined) | nt | nt | -4% | 1% | 0% | 6% | -27% | 24%
CC1(C(=O)NCc2cc(F)cc(C(F)(F)F)c2)C=CC2(CCCCC2)N1C(=O)c1ccccc1 (centres undefined) | 7%&-1% | -5.4%&1.3% | -6% | -21% | -14% | ? | 4% | 12%

Rewritten with two lines to a compound: four of the compounds above.
Order of results: Cruzain inh noDet, Cruzain inh Det, SARS PLP yeast, NS1 inh, 2A StopGo, MARV entry inh, RE007 growth inh, LASV entry inh
> N#Cc1c(NC(=O)c2ccco2)sc2c1CCC2
 : nt, nt, 8%, -4%, 54%[activator], nt, ?, nt
> CCC(C)(C(=O)NC1CCCCC1)N(Cc1cccs1)C(=O)c1ccc(=O)[nH]c1 (centres undefined)
 : 0%, 0.5%, 1%, -2%, -11%, -20%, -15%, -2%
> CCOc1ccc(CCNC(=O)C2CC(=O)N(C3CCCC3)C2)cc1OCC (centres undefined)
 : 11%, 7.3%, 3%, -8%, nt, -2%, -8%, 13%
> Cc1ccnc(NC(=O)CCC(=O)N(CC(=O)NCc2ccccc2)Cc2ccco2)c1
 : nt, nt, 0%, 6%, 34%[activator], 22%[46.1 µM], 1%, 6%[46.1 µM]

Continued.
canonical_smiles | Cruzain inh noDet | Cruzain inh Det | SARS PLP yeast | NS1 inh | 2A StopGo | MARV entry inh | RE007 growth inh | LASV entry inh
Cn1c(=O)c2c(-c3ccccc3)n(-n3cnnc3)cc2n(C)c1=O | 6.3µM* | 8.9µM* | 4% | 2% | -14% | ? | 10% | -6%
Cc1c(NC(=O)c2ccc(-c3ccccc3)cc2)cccc1C(=O)O | nt | nt | 0% | 3% | -44% | nt | 19% | nt
CC(Cc1n[nH]c(=S)n1N)c1ccccc1 (centres undefined) | nt | nt | 1% | ? | -6% | 0% | 31% | ?
CN(C)CCN1C(=O)c2oc3ccccc3c(=O)c2C1c1cccc(Br)c1 (centres undefined) | -4% | -2.5% | 3% | -11% | -2% | -29% | -4% | -3%
CSC(=NS(=O)(=O)c1ccccc1)SC | 5% | 1.5% | 1% | -14% | -30% | 9%&9% | 4% | 12%
Cc1cc(=O)oc2cc(OCC(=O)N3CCCc4ccccc43)ccc12 | -7% | -4.9% | 4% | -19% | -16% | -1% | 4% | -3%
O=C(Nc1ccc2c(c1)C(=O)OC2)c1ccc(F)cc1F | nt | nt | 0% | -5% | 61%[activator] | -1% | -13% | ?
CCCc1cc(=O)n2[nH]c(C(F)(F)F)nc2n1 | nt | nt | 1% | -3% | 1% | ? | 2% | 0%
Cc1cc(NC(=O)COC(=O)C2CC(=O)N(c3ccc(Br)cc3)C2)no1 (centres undefined) | nt | nt | -1% | -11% | 18% | 0%[46.1 µM] | 28% | -15%[46.1 µM]
COc1ccc(N2CCN(CCCNC(=O)C3CCCN(S(=O)(=O)c4cnc[nH]4)C3)CC2)cc1 (centres undefined) | -4% | 0.8% | 0% | 11% | -7% | nt | 13% | nt
COc1ccc(OC)c(NC(=S)NCCN2CCOCC2)c1 | -1% | 2.1% | -6% | 14% | -14% | 10% | 1% | -4%
CCOC(=O)c1c(C)n(OCc2ccccc2)c2ccc3nonc3c12 | ? | ? | -5% | -8% | nt | -23% | -1% | -6%

More compounds:
canonical_smiles | Cruzain inh noDet | Cruzain inh Det | SARS PLP yeast | NS1 inh | 2A StopGo | MARV entry inh | RE007 growth inh | LASV entry inh
COc1ccc(CNC(=O)CCc2c(C)nn(-c3ccc(N4CCCC4)nn3)c2C)c(OC)c1 | -13% | -2.3% | nt | nt | -1% | nt | nt | 8%[46.1 µM]
N#Cc1ccccc1NC(=O)CNc1ccccc1N1CCCCC1 | 11% | -9.6% | -11% | -6% | ? | -3% | 2% | -11%
O=C(CSc1nncn2c1cc1sccc12)Nc1ccc(Br)cc1F | 8% | -1.5% | nt | nt | -11% | nt | nt | nt
Cc1cc(Cl)c(S(=O)(=O)Nc2ccon2)cc1OCC(=O)NC1CCCCC1 | -1% | 6.5% | 0% | 4% | 0% | ? | 13% | 1%
COc1cc2ncnc(NCc3ccc4c(c3)OCO4)c2cc1OC | nt | nt | 0% | -1% | -13% | nt | -4% | nt
COC(=O)c1cccc(NC(=O)CC2NCCNC2=O)c1 (centres undefined) | nt | nt | 0% | 2% | -11% | nt | 1% | nt
CCCS(=O)(=O)c1nc(S(=O)(=O)c2ccc(C)cc2)c(N2CCCC2)s1 | -2% | -2.2% | 11% | 4% | 4% | ? | -5% | -7%
COCCCN1C(=O)C(O)=C(C(=O)c2ccco2)C1c1ccccc1 (centres undefined) | 0% | -2.7% | -5% | 2% | 5% | 14% | -12% | 13%
Cc1ccc(C)c(NC(=O)CCc2nnc3ccc(N4CCCCC4)nn23)c1 | nt | nt | -1% | -3% | 4% | nt | 4% | nt
Cc1nn(Cc2ccccc2Cl)c(C)c1NC(=O)c1noc2c1CCCCC2 | 10% | 1.8% | -7% | -58% | ? | ? | 13% | ?
COC(=O)c1ccc(OCCOCCOc2cccc3ccc(C)nc23)cc1 | 26% | -5.2% | 13% | -5% | ? | ? | -13% | 16%
O=C(NC1CCCc2ccccc21)c1ccc(CNc2c(N3CCOCC3)c(=O)c2=O)cc1 (centres undefined) | -13% | -4.4% | -6% | -32% | -5% | nt | 12% | nt

Going on with the list.
canonical_smiles | Cruzain inh noDet | Cruzain inh Det | SARS PLP yeast | NS1 inh | 2A StopGo | MARV entry inh | RE007 growth inh | LASV entry inh
N#Cc1ccccc1CSc1nc(O)cc(=O)[nH]1 | 1% | 3.3% | -3% | 3% | -1% | 5% | 9% | 6%
CC(=O)Nn1cc2c(=O)n(C)c(=O)n(C)c2c1 | -6% | 0.6% | 2% | 8% | -2% | 3% | 16% | 11%
O=C(Cc1cccs1)NCc1cc(Cl)cc(Cl)c1 | nt | nt | -3% | -13% | 11% | ? | 18% | ?
COc1cc2c(c(OC)c1OC)-c1ccc(NC(=O)c3ccccc3)c(=O)cc1[C@@H](NC(C)=O)CC2 | nt | nt | -4% | 5% | -13% | 19%[46.1 µM] | 92% | 20%
Cc1cc(C)c2[nH]c(=O)c(CN(Cc3ccco3)C(=S)NCC3CCCO3)cc2c1 (centres undefined) | 0% | -7.1% | 4% | 12% | -13% | -25% | 1% | 0%
